Source: PubChem (National Center for Advancing Translational Sciences (NCATS))
NS1 inh = qHTS Assay for Inhibitors of Influenza NS1 Protein Function | S. cerevisiae slowed by influenza A NS1, growth recovery by OD600 | Potency, µM (top dose mostly 46.1 µM), for inactives: at the highest dose activity, positive = more growth | actives 0.4% (n = 270,000) | AID 2326, 2010; active means well fitted rising curve with a large enough effect; inconclusive means small, poorly fitted or top-dose-only effect; inactive means no such curve, though single readings can be large or run the other way; further: nearly all actives have a fitted effect of over 50% in size
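Read-out: OD600 growth recovery of NS1-expressing budding yeast. Cells grown overnight at 30C in -URA glucose medium, washed, resuspended and diluted 1:100 in 2% galactose assay medium, pH 6.0. Same strain lacking NS1 served as positive control.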
Lassa entry inh = qHTS for Inhibitors of binding or entry into cells for Lassa Virus; actives 1.2% (n = 300,000); Potency, µM (highest dose often 37.9 µM), inactives show top-dose activity change, negative = inhibition, actives largely listed as inhibitors; Lassa virus pseudotype entry inhibition, cell reporter; control for the full effect not named in the record; active means well fitted inhibition curve with a large enough effect; inconclusive means small, poorly fitted or top-dose-only effect, or effect the other way; inactive means flat fitted curve, though single readings scatter; tested in HEK293 cells; further: on the % scale 0 is the no-effect control and ±100 the full control effect; nearly all actives have a fitted effect of over 50% in size; luciferase read-out
Marburg entry inh = qHTS for inhibitors of binding or entry into cells for Marburg Virus | AID 540276, 2011 | Potency, µM (highest dose often 37.8 µM), inactives show at the top dose activity change, negative = inhibition, most hits filed as inhibitors | actives 1.8% (n = 300,000) | Marburg virus pseudotyped entry inhibition, cell reporter; control for the full effect not named in the record; about a third of the inactives were read at about 46 µM; active = well fitted inhibition curve with a large enough effect; inconclusive = small, poorly fitted or top-dose-only effect, or effect the other way; inactive = flat fitted curve, though single readings scatter; tested in HEK293 cells; about a fifth of its hits are not listed in these tables; further: on the % scale 0 is the no-effect control and ±100 the full control effect; luciferase read-out
2A StopGo = High Throughput Screening for Foot and Mouth Disease Virus Antivirals. human cells with a luciferase reporter of 2A StopGo recoding; control for the full effect not named in the record. Potency, µM (top dose mostly 57.9 µM), without a hit: at the top dose signal change, negative = less light. actives 1.2% (n = 410,000); active = well fitted falling curve with a large enough effect; inconclusive = small, poorly fitted or top-dose-only effect; inactive = no such curve, though single readings can be large or run the other way; tested in HEK293T cells; further: on the % scale 0 is the no-effect control and ±100 the full control effect; nearly all actives have a fitted effect of over 45% in size; luciferase light after 4 h
Cruzain inh Det = qHTS Assay for Promiscuous and Specific Inhibitors of Cruzain (with detergent) | actives 0.43% (n = 200,000) | Cruzipain (Trypanosoma cruzi), P25779 | Potency, µM, for inactives: max response, negative = inhibition, usual class: inhibitors | purified cruzain, Z-FR-AMC fluorescence, 0.01% Triton;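 further: plate controls were neutral wells for no effect and buffer without enzyme for full effect; nearly all actives have a fitted effect of over 40% in size; top concentration of the series not given in the record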
Target sequence (P25779 123-467 limits assumed): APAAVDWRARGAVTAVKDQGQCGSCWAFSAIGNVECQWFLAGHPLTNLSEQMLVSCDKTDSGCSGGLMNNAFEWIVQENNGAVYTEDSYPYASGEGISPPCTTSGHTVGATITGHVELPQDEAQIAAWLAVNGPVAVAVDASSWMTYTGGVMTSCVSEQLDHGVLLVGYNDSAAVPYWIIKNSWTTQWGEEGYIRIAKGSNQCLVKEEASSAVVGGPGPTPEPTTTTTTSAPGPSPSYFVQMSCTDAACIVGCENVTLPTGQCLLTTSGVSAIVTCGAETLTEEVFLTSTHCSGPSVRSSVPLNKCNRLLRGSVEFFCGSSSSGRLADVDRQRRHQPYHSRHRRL
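Detergent-containing arm of a paired screen for aggregation-based inhibition: 0.01% Triton X-100 present. Cruzain at 1.5 nM cleaved 2 uM Z-FR-AMC at pH 5.5 with 5 mM DTT; AMC fluorescence gain over 60 s measured activity.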
Cruzain noTriton = qHTS Assay for Promiscuous and Specific Inhibitors of Cruzain (without detergent); Cruzipain (Trypanosoma cruzi), P25779; Potency, µM, for the others: max response, negative = inhibition, usual class: inhibitors; actives 2.3% (n = 200,000); purified cruzain, Z-FR-AMC fluorescence, no detergent;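 further: plate controls were enzyme without inhibitor for no effect and buffer without enzyme for full effect; nearly all actives have a fitted effect of over 40% in size; top concentration of the series not given in the record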
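Detergent-free condition (0.00005% Triton X-100) in acetate buffer pH 5.5 with DTT. 1.5 nM enzyme and compound were pre-mixed 15 min, then 2 uM Z-FR-AMC substrate added; reaction progress from fluorescence change between first and third reads (60 s).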
RE007 growth inh = qHTS Assay for Inhibitors of the HIV-1 protein Vpr; S. pombe RE007 Vpr strain, BacTiter-Glo ATP luminescence, 24 h; control for the full effect not named in the record; Potency, µM (highest dose often 92.2 µM), for inactives: at the top dose activity change, negative = less growth; actives 0.21% (n = 360,000); active = well fitted falling curve with a large enough effect; inconclusive = small, poorly fitted or top-dose-only effect; inactive = no such curve, though single readings can be large or run the other way;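 further: on the % scale 0 is the no-effect control and ±100 the full control effect; nearly all actives have a fitted effect of over 50% in size; the assay follows cell death caused by Vpr and the record does not say whether a fall means rescue or toxicity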
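Fission yeast strain RE007, carrying one chromosomally integrated HIV-1 vpr copy, was seeded at OD 0.01 in PMG+AL medium with 23 nL pinned compound. After 24 h at 30 °C and 99% humidity, viability was read by BacTiter-Glo luminescence.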
SARS PLP yeast = qHTS of Yeast-based Assay for SARS-CoV PLP | Potency, µM (titrated, usually from 32.9 µM), for the others: at the top dose activity, positive = growth rescue | S. cerevisiae expressing SARS-CoV PLpro, growth rescue; control for the full effect not named in the record | actives 0.19% (n = 330,000); active means well fitted rising curve with a large enough effect; inconclusive means small, poorly fitted or top-dose-only effect; inactive means no such curve, though single readings can be large or run the other way; further: 0% is about no effect; nearly all actives have a fitted effect of over 55% in size; growth read by luminescence after 48 h
An asterisk follows results filed as active; u = inconclusive; x = no result given; & = joins results of further samples; [ ] = another dose, or the depositor's remark. Unless noted, the call rests on the fitted dose curve; in most records, active means well fitted curve in the direction sought with a large enough effect; inconclusive means small, poorly fitted or top-dose-only effect, or another doubt; inactive means no such curve, though single readings can be large; an effect the other way counts as inactive or inconclusive. Potency means the concentration at half of the fitted maximal effect. No enrichment for hits; overall some 4.5% were active at least once.

SMILES | Marburg entry inh | NS1 inh | Cruzain inh Det | RE007 growth inh | Cruzain noTriton | 2A StopGo | Lassa entry inh | SARS PLP yeast
CC(=O)Oc1ccc(C(=O)[C@H]2[C@H]3C(=O)N(c4cccc5ccccc45)C(=O)[C@H]3[C@@H]3C=CC=NN32)cc1 | u | u | -5.5% | -9% | 23% | 2% | u | -2%
O=C(CSc1nnc(C2CCCCC2)o1)Nc1ccccc1Cl | -29%[46.1 µM] | -32% | x | -12% | x | 86%[activator] | u | 3%
Clc1ccccc1-c1ccc(CN2CCN(c3ccccc3)CC2)o1 | 13% | -101% | 0.3% | -28% | -9% | -13% | -9% | -37%
Cc1ccc(CCNc2nc3c(S(=O)(=O)c4ccccc4)nnn3c3ccsc23)cc1 | x | x | -2.5% | x | -9% | -7% | -3%[46.1 µM] | x
Cc1nnc(NC2=NCCCCC2)o1 | 9% | 4% | 5.1% | 13% | -7% | 7% | 2% | 0%
CCCCN1C(=O)NC(c2ccc(OC)cc2)C(C(=O)OCc2ccccc2)=C1C (configuration not stated) | x | -6% | x | 2% | x | -28% | x | 1%
Cc1csc(SCC(=O)NC(=O)Cc2ccccc2)n1 | 10% | -3% | 0.2% | x | -7% | -4% | 13% | 13%
O=C(c1ccc2c3c(cccc13)CC2)N1CCOCC1 | u | u | -4.4% | -6% | -1% | -12% | 14% | 13%
CC(C)=CC(=O)Nc1ccc(Cl)cc1 | x | -2% | x | -16% | x | 40%[activator] | x | -2%
Cc1ccc(CS(=O)(=O)CCC(=O)NCCC(C)C)cc1 | 1% | 6% | 4.5% | -7% | 9% | -13% | 0% | -2%
S=C(Nc1ccc(Cl)c(Cl)c1)N1CCCC1 | u | 1% | x | 1% | x | 60%[activator] | -3% | -1%
Cc1ccc(NC(=O)CSCC(=O)OC(C)C(=O)Nc2ccc(S(N)(=O)=O)cc2)c(C)c1 (configuration not stated) | -15%[46.1 µM] | x | x | 1% | x | -19% | 5% | 4%
CC1CCCN(c2nc3c(c(=O)[nH]c(=O)n3C)n2CCSc2nc3ccccc3o2)C1 (configuration not stated) | x | -1% | -0.9% | -3% | 8% | 0% | x | 3%
CC1CCN(CCCCOc2cccc(Br)c2)CC1 | u | -11% | 0.0% | -9% | -11% | 7% | u | -11%
CNC(=O)Oc1ccc(C(=O)N2c3ccccc3NC(=O)C2C)cc1 (configuration not stated) | x | 5% | x | -1% | x | -23% | x | 2%
O=C(NC1CC(=O)N(c2ccc(Cl)cc2)C1)c1ccc2c(c1)OCO2 (configuration not stated) | x | x | 0.6% | x | -3% | -9% | -9%[46.1 µM] | x
Cc1cccc(N2CCN(C(=O)CN3C(=O)COc4ccc(S(=O)(=O)N5CCCC5)cc43)CC2)c1C | -4%[46.1 µM] | x | -3.1% | x | u | -21% | 1%[46.1 µM] | x
O=C(Nc1ccc(N2CCOCC2)cc1)c1ccc2c(c1)OCO2 | -3%[46.1 µM] | 6% | x | -13% | x | 39%[activator] | -23% | -1%
COc1ccccc1-n1cc(C(=O)c2cc(Cl)ccc2O)cc(C#N)c1=O | u | x | x | 16% | x | -13% | -15% | 1%
CNc1ccccc1C(C)(C)c1cc(-c2cccc(Br)c2)no1 | u | x | x | -5% | x | u | u | -11%
COc1ccccc1C(=O)NCC(=O)OCC(=O)N1CC(C)OC(C)C1 (configuration not stated) | u | x | x | 14% | x | 16% | u | -2%
Cc1ccc2c(c1)N(C(=O)N1CCC(C(=O)NCc3ccccc3F)CC1)CC(C)O2 (configuration not stated) | x | x | -2.0% | x | 11% | 0% | -16%[46.1 µM] | x
CCCC(=O)Nc1cccc(-c2nc3ccccc3c(=O)o2)c1 | u | 2% | x | -6% | x | 42%[activator] | -12%[46.1 µM] | -1%
CC(=O)c1ccccc1C(=O)NCc1cccnc1 | u | 4% | 2.6% | 4% | 3% | -8% | -7% | 7%
COc1cccc(N2CCN(C(=S)NCCc3ccccc3)CC2)c1 | -11%[46.1 µM] | 21% | 2.2% | -7% | -2% | -4% | -5% | -2%
Cc1ccc(S(=O)(=O)N2CCN(C(=O)CSc3nnc(C)c(=O)[nH]3)CC2)cc1 | 16% | -4% | 1.4% | 3% | -11% | -12% | -10% | 1%
NC(=O)CC(NC(=O)Cc1ccc(Br)cc1)c1ccc(NCCc2ccc(F)cc2)c([N+](=O)[O-])c1 (configuration not stated) | x | 2% | x | -3% | x | -19% | x | -2%
CCc1ccccc1NC(=O)C1COc2ccccc2C1 (configuration not stated) | x | x | -1.7% | x | -14% | -11% | 9%[46.1 µM] | x
N#C/C(=C\c1ccc(OCc2ccc(Br)cc2)cc1)C(=O)Nc1cccc(C(=O)O)c1 | u | -65% | x | -9% | x | 3% | u | -8%
O=C(NCCC1=CCCCC1)C1CC(=O)N(C2CCCCCC2)C1 (configuration not stated) | 21% | -8% | 1.4% | -19% | 15% | x | -1% | -5%
CCOC(=O)c1noc2nc(C)n(CC(=O)Nc3cc(Cl)ccc3OC)c(=O)c12 | x | x | -0.4% | x | -3% | -13% | x | x
O=C(CCc1nc2cccnc2n1-c1ccccc1)Nc1ccc(Cl)c(Cl)c1 | -20%[46.1 µM] | x | -6.4% | x | 0% | u | 25%[46.1 µM] | x
CC(=O)c1cc2c(cc1NC(=O)CN1CCOCC1)OCO2 | 0% | -4% | -5.0% | -6% | -12% | -2% | 12% | -1%
CCn1cc(C(=O)N2CCN(c3cc(Cl)ccc3C)CC2)c(=O)c2cc(S(=O)(=O)N3CCCC3)ccc21 | -2%[46.1 µM] | x | -0.8% | x | u | -7% | 6%[46.1 µM] | x
CC(=O)NC1=NN(C(C)=O)C2(CCCC2)S1 | 7%[46.1 µM] | x | x | -6% | x | 1% | -7% | 0%
Cc1ccc(NS(=O)(=O)c2c(C)nc3sccn3c2=O)c(Cl)c1 | 6%[46.1 µM] | x | -9.7% | x | -4% | 19% | 20%[46.1 µM] | x
Cc1c(CC(=O)O)c(=O)oc2cc(OCc3ccc(Br)cc3)ccc12 | u | -2% | x | 16% | x | 47%[activator] | -1% | -1%
CC(=C1C2C=CC1C1C(=O)NC(=O)C21)c1ccccc1 (configuration not stated) | 1% | -2% | 4.4% | 1% | 2% | -9% | -13% | 1%
Cc1cccc(-c2nc3c4ccccc4nc(N4CCN(c5ccc(F)cc5)CC4)n3n2)c1 | 13%[46.1 µM] | x | -0.1% | x | 25% | 4% | x | x
CC(Cc1cnccn1)NCc1c(C(=O)N2CCCCCCC2)nc2ccc(Cl)cn12 (configuration not stated) | 0% | 4% | x | -12% | x | -9% | 11% | 4%
CC(C)CN(C(=O)CSc1nnc(-c2ccco2)o1)c1c(N)n(Cc2ccccc2)c(=O)[nH]c1=O | u | x | x | 32% | x | -11% | x | -5%
CCCCn1c(N)c(N(CC(C)C)C(=O)CSC(C)C(=O)Nc2cc(C)on2)c(=O)[nH]c1=O (configuration not stated) | 4% | x | x | -19% | x | -16% | 1% | 0%
CC1(C)CC(NS(=O)(=O)c2ccc(Cl)cc2)CC(C)(C)N1 | -10% | 0% | x | -8% | x | -9% | 24% | 1%
Nc1nonc1NC(=O)CSc1nc2ccccc2s1 | 15%[46.1 µM] | -47% | -1.0% | 18% | 4% | 4% | -5% | x
COc1ccccc1N1CCN(S(=O)(=O)c2c(C)sc3ncn(CC(=O)Nc4ccc(C(F)(F)F)cc4)c(=O)c23)CC1 | -28%[46.1 µM] | x | -0.8% | x | 11% | -25% | u | x
COC(=O)c1ccc(C)c(NC(=O)CCc2ccc(OC)c(OC)c2)c1 | u | -2% | 2.1% | -6% | -1% | -21% | 4% | 3%
CCOC(=O)c1sc(NC(=O)CN2CCN(c3ccccc3)CC2)nc1C | u | -5% | x | 9% | x | -21% | -2% | 11%
COc1ccccc1C(=O)N/N=C(\C)c1ccc(NC(=O)Cc2ccccc2)cc1 | x | 5% | x | 24% | x | u | x | -9%
COc1ccc(Br)cc1C(=O)NC(=S)Nc1ccc(Cl)c(C(=O)O)c1 | 7% | x | x | -6% | x | 0% | 7% | -4%
COc1ccc(N2CCN(CCCNC(=O)c3ccc4nc(CCc5ccccc5)oc4c3)CC2)cc1 | x | x | -2.3% | x | 3% | u | 10µM* | x
COc1cc(/C=N/O)ccc1Oc1cnccn1 | 0%[46.1 µM] | 1% | x | -3% | x | 10% | 0% | 1%
COc1cccc([C@@H]2Oc3ccc(Br)cc3C(=O)[C@H]2OC(=O)NC2CCCC2)c1 | 5% | 7% | 0.7%&0.2% | 1% | 6%&3% | 11% | 5% | 5%
Cc1cc(NC(=O)c2sccc2C)n(-c2cccc(Cl)c2)n1 | u | u | -1.7% | -14% | 5% | -13% | 6% | 2%
Cc1ccc(-c2nc3cc(Cl)ccc3o2)cc1 | u | 7% | 1.6% | -9% | u | -55% | u | 6%
CCC(C)N(C(=O)COc1ccc(-c2nnco2)cc1)C1CCS(=O)(=O)C1 (configuration not stated) | u | x | x | -6% | x | -2% | 20% | 1%
O=C(NCc1ccccn1)/C(=N/O)c1ccccc1 | u | -1% | 2.3% | -2% | 4% | 26% | 25% | -1%
c1ccc(-n2nnnc2Oc2ccc(-n3ccnc3)cc2)cc1 | 7% | -14% | -0.2% | -10% | -9% | -14% | -2% | -1%
COc1ccc(CNC(=O)[C@H](Cc2c[nH]c3ccccc23)NC(=O)[C@@H]2Cc3ccccc3CN2)cc1 | x | 4% | x | -17% | x | -14% | x | 9%
CCN(CC)CCN1C(=O)C(=O)/C(=C(/O)c2c(C)[nH]c(C(=O)OC)c2C)C1c1ccccc1 (configuration not stated) | 10% | 0% | -10% | -3% | -11% | 28% | 19% | 1%
